VDR inh – Inhibitors of the vitamin D receptor (VDR): qHTS; Vitamin D3 receptor (Homo sapiens), P11473; VDR-SRC2-3 peptide fluorescence polarization, 2 h; Potency, µM, for inactives: max response, negative = inhibition, most hits filed as inhibitors; 400,000 compounds, 0.93% hits; AID 504847, 2011; active = well fitted inhibition curve with a large enough effect; inconclusive = small, poorly fitted or top-dose-only effect, or another doubt; inactive = no such curve, though single readings can be large or run the other way; note: series mostly up to about 120 µM
Target sequence (P11473 whole entry, looked up): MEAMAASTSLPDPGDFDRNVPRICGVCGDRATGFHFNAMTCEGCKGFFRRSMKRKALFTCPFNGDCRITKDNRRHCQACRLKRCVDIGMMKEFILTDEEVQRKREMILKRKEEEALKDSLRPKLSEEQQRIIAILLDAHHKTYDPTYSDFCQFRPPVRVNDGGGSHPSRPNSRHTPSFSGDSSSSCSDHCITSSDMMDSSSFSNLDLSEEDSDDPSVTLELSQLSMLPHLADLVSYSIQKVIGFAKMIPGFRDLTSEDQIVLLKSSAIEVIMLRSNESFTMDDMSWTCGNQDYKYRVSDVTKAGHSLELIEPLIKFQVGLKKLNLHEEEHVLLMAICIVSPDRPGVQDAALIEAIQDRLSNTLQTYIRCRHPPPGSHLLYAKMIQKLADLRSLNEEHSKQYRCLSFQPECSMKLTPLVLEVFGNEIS
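Reagent solutions, kept cold and dark, are dispensed first; compounds are then pinned in at 23 nl, plates briefly spun, and incubated 2 h at ambient temperature. Inhibition of VDR–SRC2-3 peptide binding is read by fluorescence polarization.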
Active calls of the source: *; ? = inconclusive; & = joins results of further samples. % is set by controls: 0 for no effect and ±100 for the full control effect; potency is the fitted concentration of half-maximal effect. An excerpt; count on the stated rates, not on these rows.

VDR inh | Structure
-17.1% | CCOc1ccc(NC(=O)C2CC(=O)N(Cc3ccco3)C2)cc1 (centres undefined)
11.7% | Cc1onc(-c2ccccc2)c1CNC(=O)Nc1ccc(C(F)(F)F)cc1
-10.7% | COc1ccc(C(=O)Nc2ccc3c4c(cccc24)CC3)cc1
-8.6% | N#Cc1ccc(S(=O)(=O)Nc2ccc3ccccc3n2)cc1
-8.2% | Cc1c(N)cc[n+](CC(=O)c2ccccc2)c1C
? | CCC(C)C(NC(=O)c1ccccc1NC(=O)c1ccccc1)C(=O)O (centres undefined)
-27.9% | Cc1cc(-c2nnc(SCC(=O)Nc3ccccn3)o2)no1
-6.9% | O=C(c1ccc(Br)s1)N1CCN(c2ccccn2)CC1
? | COc1cc(CN2CCCC(CO)(Cc3ccccc3)C2)ccc1O (centres undefined)
-18.6% | COc1ccc(C2(C)NC(=O)N(CC(=O)Nc3ccc4[nH]c(=O)[nH]c4c3)C2=O)cc1 (centres undefined)
-21.3% | CSC1=NSC2=NC(=O)/C(=C\c3cccs3)C(=N)N12
-10.4% | Cc1cc(C2C(=O)NC(=O)C2=O)c(C)cc1Br (centres undefined)
8.6% | COc1ccc(OC)c(S(=O)(=O)NCCS(=O)(=O)N2CCN(c3ccccc3F)CC2)c1
4.3% | O=C(N=Nc1c(O)[nH]c2ccccc12)c1cc(-c2cccs2)[nH]n1
17.8% | O=C(CSc1oc(-c2ccccc2)nc1S(=O)(=O)c1ccc(Br)cc1)c1ccccc1
4.1% | O=C(N/N=C/c1cccc(O)c1)c1cc2c(ccc3ccccc32)o1
-8.0% | O=c1[nH]c(=O)c2nc(-c3ccc(Cl)cc3)cnc2[nH]1
? | CCC(=O)N(CCC(c1ccccc1)c1ccco1)Cc1cccs1 (centres undefined)
-5.2% | NC(N)=NC(N)=Nc1cccc2ccccc12
-2.8% | CNC(=S)N1C2CCCC1CC(NC(=O)c1ccc(C)cc1)C2 (centres undefined)
14.8% | Cc1cccc(C)c1OCC(=O)NC1CC1
7.94µM* | Cc1ccc2sc(NNC(=O)c3cc(=O)c4ccccc4o3)nc2c1C
17.5% | CC1Cc2ccccc2N1C(=O)COC(=O)C1=COCCO1 (centres undefined)
9.7% | Cc1cc(OCC(=O)N[C@@H](Cc2ccccc2)c2nc3ccccc3[nH]2)ccc1Cl
12.4% | COc1ccc(CC(=O)OCc2cc3cccc(C)c3[nH]c2=O)cc1
-1.3% | Cc1ccc(-n2nnnc2SCCNS(=O)(=O)c2ccccc2)cc1C
16.8% | Cc1oc(C)c(C(=O)NCCCC(=O)O)c1C(=O)NCCCC(=O)O
-4.4% | CCN(Cc1ccccc1)S(=O)(=O)c1cc(C(=O)c2c(N)n(C)c(=O)n(C)c2=O)ccc1OC
18.2% | CCOC(=O)c1nn(-c2ccccc2)c(=O)cc1SC(C)CC (centres undefined)
? | CCc1ccc(/C=C2/SC(=S)N(CCCC(=O)Nc3ccccc3C(=O)O)C2=O)cc1
0.2% | CC(C)c1ccc(NC(=O)Cc2ccc(NC(=O)N3CCCCc4ccccc43)cc2)cc1
2.4% | NC(=O)c1ccsc1NC(=O)CSc1nnc(Nc2ccccc2)s1
23.5% | COCCNC(=O)CCCCCn1c(=S)[nH]c2ccccc2c1=O
2.0% | CCc1ccccc1NC(=O)CSc1nc(-c2cccc(Cl)c2)nc2c1Cc1c(CO)cnc(C)c1O2
-0.1% | CC(=O)c1ccc(NS(=O)(=O)c2ccc(-c3cc(C)no3)s2)cc1
-20.7% | O=C(CSc1nc(C(F)(F)F)cc(=O)[nH]1)N1CCCC1
1.7% | COc1ccccc1NC(=O)COC(=O)c1cc(C)nc2ccccc12
7.2% | COc1ccc(NC(=S)N2CCN(S(=O)(=O)c3ccccc3)CC2)cc1
-17.0% | COc1ccc2[nH]c3c(c2c1)CCN1C(=O)C(CC(=O)NCC24CC5CC(CC(C5)C2)C4)C[C@H](C(=O)N2CCOCC2)[C@@]31C (some centres undefined)
-8.2% | Cc1ccc(S(=O)(=O)c2ccc(NN)cc2)cc1
-9.7% | O=C(Nc1nnc(-c2ccco2)o1)c1cccc2ccccc12
? | CCOc1ccccc1C1N=C(c2ccc(OC)cc2)CC(c2ccccc2O)N1 (centres undefined)
-14.0% | COC(=O)C1=C(C(=O)OC)[C@@H]2N(Cc3ccccc3)c3ccccc3[C@@]23C[C@@H](CO)N(C(=O)NC2CCCC2)C3=N1
4.0% | c1ccc(-n2nnnc2Oc2cccc3cccnc23)cc1
6.8% | Cc1ccc(Cl)cc1NC(=O)C[n+]1ccc(Cc2ccc([N+](=O)[O-])cc2)cc1
-0.9% | COc1ccccc1CNC(=O)c1ccc(NS(=O)(=O)c2cccs2)cc1
-33.4%&6.5% | O=C(Cn1cccc1C(=O)c1ccccc1)NCc1ccc(Cl)cc1
-6.8% | CC(=O)NC(C)C(=O)OCC(=O)Nc1ccc(Br)cc1 (centres undefined)
6.7% | CCOc1ccccc1CN1CCN(Cc2cc(=O)c3ccccc3[nH]2)CC1CCO (centres undefined)
4.7% | Cc1nn2cc(-c3cccc(Cl)c3)cnc2c1Cl

3 entries picked at random from the list so far:
VDR inh | Structure
6.8% | Cc1ccc(Cl)cc1NC(=O)C[n+]1ccc(Cc2ccc([N+](=O)[O-])cc2)cc1
? | CCc1ccc(/C=C2/SC(=S)N(CCCC(=O)Nc3ccccc3C(=O)O)C2=O)cc1
6.7% | CCOc1ccccc1CN1CCN(Cc2cc(=O)c3ccccc3[nH]2)CC1CCO (centres undefined)

Carrying on.
VDR inh | Structure
14.9% | CCCSc1ncc(Cl)c(C(=O)Nc2ccc(S(=O)(=O)N3CCCC(C)C3)cc2)n1 (centres undefined)
8.5% | O=C(Cn1c(SCC(=O)Nc2ccc(F)cc2)nc2ccccc21)NCc1ccc(Cl)cc1
-8.2% | COc1ccccc1NC(=O)c1ccccc1NS(=O)(=O)c1cccs1
-12.9% | Cc1onc(-c2c(F)cccc2Cl)c1C(=O)Nc1cc(S(=O)(=O)N2CCCCC2)ccc1O
? | Cc1cc(CNC(=O)c2ccc(C)c([N+](=O)[O-])c2)c2ccccc2n1
8.9% | CC(Cc1c[nH]c2ccccc12)C(=O)O (centres undefined)
-0.5% | CC(CC(=O)NCc1ccc(Cl)cc1)S(=O)(=O)c1ccc2c(c1)NC(=O)CO2 (centres undefined)
-1.1% | COc1ccc(N2CCN(CC(=O)c3ccccc3)CC2)cc1
3.3% | CCCCNC(=O)N1CCCC(N(C)CCc2ccc(OC)c(OC)c2)C1 (centres undefined)
9.1% | CC(=O)N1C(c2ccccc2)CC(=O)OC1c1ccc2c(c1)OCO2 (centres undefined)
-23.2% | CCC(C)(C)NC(=O)CN(CC1CCCO1)C(=O)CCC(=O)Nc1nccs1 (centres undefined)
-5.9% | Cc1cccc(NC(=O)CC2SC(=NC3CCCCC3)NC2=O)c1 (centres undefined)
5.7% | Cc1ccc(N(C(=O)Nc2ccccc2)C2=NCC(C)S2)cc1 (centres undefined)
-4.4% | O=S(=O)(/N=C/c1c(O)ccc2ccccc12)c1ccccc1
2.4% | CC(=O)NCCC(=O)NCc1ccc(F)cc1
3.4% | CCCCc1ccc(-c2csc(/C(C#N)=C/c3ccco3)n2)cc1
4.8% | Cc1ccc(-c2noc(C3CCCCC3)n2)cc1
-4.4% | CC(Sc1nnc(-c2cccs2)n1N)C(=O)NCC1CCCO1 (centres undefined)
-20.0% | COc1ccc(C2=NOC(COc3ccc([N+](=O)[O-])cc3)C2)cc1 (centres undefined)
7.8% | CCn1c(SCC(=O)Nc2cccc(Cl)c2)nnc1-c1nonc1NC(C)=O
-13.6% | CC(C)c1ccc(NC(=O)NC2CC3CCC(C2)N3Cc2cccs2)cc1 (centres undefined)
-14.3% | CC(NCC1(N2CCOCC2)CCCCC1)C(=O)N1CCc2ccccc21 (centres undefined)
-14.6% | COc1ccc(-c2nnc3ccc(SCC(=O)N4CCCCCC4)nn23)cc1OC
-8.1% | CC(=O)C1C(c2ccco2)c2c(noc2C)CC1(C)O (centres undefined)
5.3% | CCO/C(C)=C1\C(=O)N(CC)c2ccccc21

3 of the compounds above, in markdown.
| compound | VDR inh |
| --- | --- |
| CC(=O)c1ccc(NS(=O)(=O)c2ccc(-c3cc(C)no3)s2)cc1 | -0.1% |
| CC(C)c1ccc(NC(=O)NC2CC3CCC(C2)N3Cc2cccs2)cc1 (centres undefined) | -13.6% |
| COCCNC(=O)CCCCCn1c(=S)[nH]c2ccccc2c1=O | 23.5% |

Additional records follow.
VDR inh | Structure
-0.3% | CCN(CC)C(=O)c1sc2c(c1C)c(=O)n(-c1ccc(OC)cc1OC)c(=O)n2Cc1cc(C)ccc1C
? | CC(C)c1ccc(NC2(C#N)C(=O)Nc3ccccc32)cc1 (centres undefined)
-2.5% | CN(C)c1ccc(C(CNS(=O)(=O)c2cc(F)ccc2F)N2CCOCC2)cc1 (centres undefined)
12.4% | CC(=O)Nc1nc2ccccc2n1Cc1ccc(Cl)cc1
-18.7% | CC(=O)Nc1ccc(NC(=O)Cn2c(CC(=O)N3CCCC3)nc3ccccc32)cc1
14.4% | Cc1c(Cl)cccc1NC(=O)COC(=O)CCc1nc2ccccc2n1-c1ccccc1
-3.4% | O=C(CN1CCN(Cc2ccccc2F)C1=O)NCc1ccccc1
-8.6% | CCC(CC)CN1C(Nc2ccccc2)=NC[C@@H]1C
7.1% | CN(C)CCCOc1ccc(Cl)cc1Br
-2.5% | Cn1cccc1C(=O)NCCc1ccc(Cl)cc1
-8.0% | COc1ccnc(CN(C)C(=O)C2CCC(=O)N(CCN(C)C)C2)c1 (centres undefined)
-14.5% | CCCCNC(=O)CSc1nc2ccc(Nc3nc(N4CCOCC4)nc(N4CCOCC4)n3)cc2s1
7.2% | COc1ccc(Cn2c(=O)n(-c3ccccc3C)c(=O)c3c4c(sc32)CN(C(C)=O)CC4)cc1
-16.3% | CCN(CC)CCN1C(=O)c2oc3ccccc3c(=O)c2C1c1ccc(C)cc1 (centres undefined)
14.7% | COc1cc(NC2=CC(=O)CC(C)(C)C2)cc(OC)c1
9.0% | O=C(CNC(=O)c1ccc(Cl)cc1Cl)NCCCn1ccnc1
-0.9% | CSc1ncccc1C(=O)N1CCCC(Nc2ccc(C)c(C)c2)C1 (centres undefined)
0.7% | CCN(C(=O)c1c(C)oc2ncnc(N3CCCCC3)c12)c1cc(C)ccc1C
-1.9% | C=CCn1c(CCNC(=O)c2ccccc2F)nnc1SCC(=O)Nc1ccccc1F
-16.5% | CC1CCCN(S(=O)(=O)c2ccc(C(=O)Nc3nnc(-c4ccncc4)o3)cc2)C1 (centres undefined)
-1.2% | CCOC(=O)Cn1c(=O)c(C#N)cn(C(C)C)c1=O
-0.5% | COc1ccc2c(c1OC)C(=O)OC2Nc1ncccc1C (centres undefined)
? | O=C(N/N=C/C(Br)=C/c1ccccc1)c1ccccc1F
5.6% | O=C(N[C@H](C(=O)O)c1ccccc1)C1CCC(Cn2cnc3ccccc3c2=O)CC1 (some centres undefined)
11.7% | Cc1nn(Cc2ccc(Cl)c(Cl)c2)c(C)c1NC(=O)c1cc(CC(C)C)on1

Copied from the list.
Value for CN(C)c1ccc(C(CNS(=O)(=O)c2cc(F)ccc2F)N2CCOCC2)cc1 (centres undefined) under VDR inh: -2.5%
Value for O=C(N[C@H](C(=O)O)c1ccccc1)C1CCC(Cn2cnc3ccccc3c2=O)CC1 (some centres undefined) under VDR inh: 5.6%
Value for Cn1cccc1C(=O)NCCc1ccc(Cl)cc1 under VDR inh: -2.5%

More records follow:
VDR inh | Structure
4.0% | O=c1c(O)c(-c2cccs2)oc2ccccc12
-6.1% | C=CCN1CCN(C(=O)c2oc3ccccc3c2C)CC1
8.4% | CC(NC(=O)CCC1COc2ccccc2O1)c1ccccc1 (centres undefined)
-8.8% | COC(=O)c1ccc(-n2c(C)cc(C(=O)CSc3ccc(NC(C)=O)cc3)c2C)cc1
-4.7% | O=C1CN(C(=O)c2c(F)cccc2F)C(c2ccc(F)cc2)c2cc(F)ccc2N1 (centres undefined)
-18.5% | Cc1cc(C)cc(-n2ncc3c2CCCC3NC(=O)c2cc(C)[nH]n2)c1 (centres undefined)
20.0% | COc1ccc(Cl)cc1NC(=O)c1cc2ccccn2n1
-20.4% | CCCCCN(C(=O)CCC(=O)OCc1cccc(F)c1)c1c(N)n(CCCC)c(=O)[nH]c1=O
-21.7% | CNc1ccc(OC)cc1-n1cnc(-c2ccc([N+](=O)[O-])cc2)c1
10.1% | COc1ccc(N2CC(C)Cn3c2nc2c3c(=O)n(Cc3ccccc3)c(=O)n2C)c(OC)c1 (centres undefined)
-5.8% | C=CCOC(=O)C1=C(C)NC(C)=C(C(=O)OCC=C)C1/C=C/c1ccccc1
-1.8% | CCCCCCC#Cc1ccc2c(c1)COc1c3ccccc3nn1-2
6.9% | Fc1ccc2c(c1)-c1c(cnc3cc(-c4ccc(Cl)cc4)nn13)CO2
-19.0% | O=C(NCc1ccccn1)C1Nc2ccc(C(F)(F)F)cc2C2C=CCC12 (centres undefined)
0.7% | Cc1nnc(SCC(=O)N(CC(C)C)c2c(N)n(CC(C)C)c(=O)[nH]c2=O)n1-c1ccccc1
-13.7% | N#CCC(=O)N/N=C/c1coc2ccccc2c1=O
? | CCOc1ccccc1-c1ccc(C(=O)O)s1
3.6% | CCOC(=O)C1CCCN(C(=O)Nc2c(-c3ccccc3)noc2C)C1 (centres undefined)
1.9% | CCOC(=O)C1CCN(C(=O)c2cc(OCC)c(OCC)c(OCC)c2)CC1
-10.7% | CC(C)(C)c1ccccc1NC(=O)c1cnn2c(C(F)F)cc(-c3ccccc3)nc12
-7.3% | CCOc1ccccc1N(CC(=O)NC1CCCC1)C(=O)CCCC(=O)Nc1ccccn1
-9.3% | Cc1cc(OCC(=O)Nc2ccc(-c3nc4cc(Cl)ccc4o3)cc2)cc(C)c1Cl

Part of the list above in another layout.
> Cc1nnc(SCC(=O)N(CC(C)C)c2c(N)n(CC(C)C)c(=O)[nH]c2=O)n1-c1ccccc1
  VDR inh = 0.7%
> CC(C)(C)c1ccccc1NC(=O)c1cnn2c(C(F)F)cc(-c3ccccc3)nc12
  VDR inh = -10.7%

Screening results from PubChem BioAssay.
